Source: PubChem (PCMD)
Calb biofilm kill = clotrimazole potentiators killing C. albicans biofilm, primary screen, 4-compound mixtures; inhibition, % at 7.6 µM; AID 1242, 2008; C. albicans biofilm persisters + clotrimazole, fluorescence viability; primary screen in compound mixtures of four per well; 120,000 compounds, 0.02% hits;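 active means inhibition above 30.3% in the primary screen of four-compound pools, then above 30% when the compound was retested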;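 further: compounds exposed to preformed 24 h biofilms for 48 h; the number belongs to the whole pool; some results filed as inactive read as strong as hits; inactives centre near 12; 0% = biofilm with clotrimazole alone and 100% = kill control; retested singly at about 60 µM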
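Test system: C. albicans biofilms. Buffer or medium: RPMI/MOPS medium, pH 7.0. Timing: 48 h compound exposure at 37 °C. Technique: Alamar Blue fluorescence. Evaluation: percent inhibition of biofilm viability.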
An asterisk follows results filed as active. Some of the compounds tested; the hit share may differ from the screen's.

SMILES	Calb biofilm kill
COc1ccc(CN2CCc3ccccc3C2)c(OC)c1	14.8
O=C(Nc1ccc(Cl)c(Cl)c1)Nc1nc(-c2ccccc2)cs1	18.9
CCCCc1c(O)nc(SCC(=O)c2ccccc2)n(-c2ccccc2C)c1=O	9.1
COc1ccc(N2CCN(C(=O)c3ccccc3F)CC2)c([N+](=O)[O-])c1	19.2
Cn1c(=O)c2c(ncn2CC(=O)OCC(=O)NCc2ccccc2Cl)n(C)c1=O	18.0
Cc1cccc(Cn2nc(C)c(NC(=O)c3ccc(F)cc3)c2C)c1	19.7
COc1ccc(-c2nc(C)sc2C)cc1	4.2
O=[N+]([O-])c1cccnc1Oc1cccnc1	13.0
COc1cccc(/C=C/C(=O)Oc2ccc(C(=O)c3ccc(F)cc3)cc2)c1	10.1
CC/C(=N/Nc1ccccc1)c1cnnc(-c2ccccc2)n1	13.2
Nc1cccc(NP(=O)(c2ccccc2)c2ccccc2)c1	13.8
CCOC(=O)c1c(CSc2ccccc2)n(C)c2cc(Br)c(OCC(O)CNC(CO)(CO)CO)cc12 (stereo not drawn)	6.7
Cc1ccc(-n2nc(C)cc2NC(=O)CC#N)cc1	14.0
COC(CNC(=O)c1cnn2c(C)c(Cc3ccccc3)c(C)nc12)OC	17.1
O=C(CCc1nnc(CCC2CCCCC2)o1)NCCn1cccn1	-6.6
c1ccc2c(c1)nc1n2CCN1	15.4
Cc1cc(=O)oc2cc(OCC(=O)OCC(=O)NC(C)C)ccc12	21.2
COc1ccc(CCNC(=O)c2cc3c(C)nccc3[nH]c2=O)cc1OC	14.9
O=c1[nH]ncc(NCCCO)c1Cl	7.2
COc1cccc(-c2cc(C(=O)NCC3CCCO3)c3ccccc3n2)c1 (stereo not drawn)	10.4
C#Cc1ccc([C@H]2C=C(C(=O)N3CCOCC3)O[C@@H](OCc3ccc(CO)cc3)C2)cc1	26.1
CCOc1ccc(/C=N/NC(=O)c2nnn(-c3nonc3N)c2-c2ccc(OCC)cc2)cc1	5.5
Cc1ccc(S(=O)(=O)N2CCN(C(=O)c3ccccn3)CC2)cc1	39.3
COc1ccc(S(=O)(=O)Nc2ccccc2OC)cc1NC(=O)CC1CC2CCC1C2 (stereo not drawn)	7.4
COc1ccc(-c2nnc(SC(C)C(=O)NNC(=O)c3ccc(C)cc3)o2)cc1 (stereo not drawn)	-1.1
Cc1sc(NC(=O)c2cccs2)c(C(=O)OC(C)C)c1C	15.2
CCOC(=O)c1c(NC(=O)c2ccc(N3C(=O)[C@@H]4[C@H](C3=O)[C@H]3C=C[C@@H]4C3)cc2)sc2c1CC(C)CC2 (stereo partly drawn)	14.5
O=C(NCCN1C(=O)S/C(=C\c2cccs2)C1=O)c1ccco1	11.0
O=C(C1CCN(CCCc2ccccc2)CC1)N(CCc1ccccc1)Cc1ccccc1	11.2
NCCSSCCN	21.7
COc1ccc(/C=C/C(=O)N(Cc2cccs2)C2CCS(=O)(=O)C2)cc1 (stereo not drawn)	23.9
CCOC(=O)c1cc(C(C)(C)C)nc(SC)c1C#N	20.9
O=C(NCc1ccco1)C(c1ccncc1)N(C(=O)Cc1cccs1)c1ccccc1 (stereo not drawn)	15.1
COc1cc([N+](=O)[O-])cc(/C=N/NC(=O)C(C)Nc2cccc(C)c2)c1O (stereo not drawn)	3.0
CC(Oc1ccccc1)c1ccnc(N)n1 (stereo not drawn)	12.7
Cc1ccc(C(C)(C)C)cc1S(=O)(=O)Nc1cccc(S(=O)(=O)NC2=NCCC2)c1	4.7
O=C(COC(=O)c1ccccn1)Nc1ccccc1OC(F)F	13.6
CCN(C(=O)COC(=O)COc1ccc2c(C)cc(=O)oc2c1)C1CCS(=O)(=O)C1 (stereo not drawn)	9.7
COc1ccccc1NC(=O)c1ccc(NC(=O)CN(C)Cc2ccccc2F)cc1	10.2
CC(C)CC(NS(=O)(=O)c1cccc(C(=O)O)c1)C(=O)O (stereo not drawn)	14.4

Reprinted at random: 6 entries already listed.
SMILES	Calb biofilm kill
Cc1ccc(C(C)(C)C)cc1S(=O)(=O)Nc1cccc(S(=O)(=O)NC2=NCCC2)c1	4.7
Cc1cccc(Cn2nc(C)c(NC(=O)c3ccc(F)cc3)c2C)c1	19.7
CCOC(=O)c1c(NC(=O)c2ccc(N3C(=O)[C@@H]4[C@H](C3=O)[C@H]3C=C[C@@H]4C3)cc2)sc2c1CC(C)CC2 (stereo partly drawn)	14.5
O=C(COC(=O)c1ccccn1)Nc1ccccc1OC(F)F	13.6
COC(CNC(=O)c1cnn2c(C)c(Cc3ccccc3)c(C)nc12)OC	17.1
CCOC(=O)c1c(CSc2ccccc2)n(C)c2cc(Br)c(OCC(O)CNC(CO)(CO)CO)cc12 (stereo not drawn)	6.7

The list continues:
SMILES	Calb biofilm kill
COc1cc(/C=N/NC(=O)C(N)=O)ccc1OC(=O)c1cccs1	8.7
CC1CCN(C(=S)Nc2ccc(F)cc2)CC1	12.4
CN(CCc1ccccn1)C(=O)CCC1CCCN(C(=O)NC2CCCCC2)C1 (stereo not drawn)	-6.6
O=C(O)C1C2C=CC(C2)C1C(=O)NCc1ccc(Cl)c(Cl)c1 (stereo not drawn)	11.5
O=C(Nc1ccc(N2CCOCC2)c(Cl)c1)c1ccc(F)cc1	11.3
C/C(=N\NC(=O)Cn1cc([N+](=O)[O-])cn1)c1ccco1	18.1
Cc1cc(CN(C)Cc2ccc(OCC(O)CN(C)Cc3ccccc3)cc2)on1 (stereo not drawn)	-8.7
CC1CCc2sc(-c3n[nH]c(=S)o3)cc2C1 (stereo not drawn)	27.9
O=C(Nc1ccccc1Cl)C1CC(=O)N(c2ccccc2)C1 (stereo not drawn)	4.4
COC(=O)c1ccc(NC(=S)NC2CC3CCC2C3)cc1 (stereo not drawn)	17.1
COc1ccccc1Cn1c(SCC(N)=O)nc2c(oc3ccccc32)c1=O	5.1
COc1ccc(CC(=O)NCc2n[nH]c(=S)n2-c2ccc(Br)cc2)cc1	5.4
CC1CC(=S)Nc2ccccc2N1Cc1ccccc1 (stereo not drawn)	12.7
COc1ccc(/C=N/NC(=O)Cn2cnc3c2c(=O)n(C)c(=O)n3C)cc1	32.0
C/C(CC(=O)NCc1ccccc1)=N\NC(N)=S	9.7
CC1CN(C2=N/C(=C/c3ccc4c(c3)OCO4)C(=O)N2)CC(C)O1 (stereo not drawn)	7.0
COc1ccc(C(=O)C2CCCN(Cc3cnc(N4CCOCC4)s3)C2)c(OC)c1 (stereo not drawn)	3.4
N/C(=N/OC(=O)c1cccc([N+](=O)[O-])c1)c1cccc([N+](=O)[O-])c1	12.5
Cc1cc(NS(=O)(=O)c2ccc(NS(=O)(=O)c3ccc(CC(C)C)cc3)cc2)nc(C)n1	5.1
CCCCOc1ccc(-c2[nH]ncc2C=O)cc1	12.9

Reprinted from the part before: 7 entries; new compounds follow.
SMILES	Calb biofilm kill
COc1ccc(/C=N/NC(=O)Cn2cnc3c2c(=O)n(C)c(=O)n3C)cc1	32.0
C/C(CC(=O)NCc1ccccc1)=N\NC(N)=S	9.7
CC1CN(C2=N/C(=C/c3ccc4c(c3)OCO4)C(=O)N2)CC(C)O1 (stereo not drawn)	7.0
COc1ccc(C(=O)C2CCCN(Cc3cnc(N4CCOCC4)s3)C2)c(OC)c1 (stereo not drawn)	3.4
N/C(=N/OC(=O)c1cccc([N+](=O)[O-])c1)c1cccc([N+](=O)[O-])c1	12.5
Cc1cc(NS(=O)(=O)c2ccc(NS(=O)(=O)c3ccc(CC(C)C)cc3)cc2)nc(C)n1	5.1
CCCCOc1ccc(-c2[nH]ncc2C=O)cc1	12.9
COc1cc(C(=O)OCC(=O)Nc2c(F)cccc2F)cc(OC)c1C	5.0
O=C(Nc1nc2ccccc2[nH]1)c1ccc(F)c(S(=O)(=O)N2CCOCC2)c1	11.8
COc1ccc2c(c1)C(c1ccc(C)o1)=NNC(c1ccccc1)=N2	5.3
CC(C)(C)NNC(=S)Nc1cccc(F)c1	16.9
CC(C)[C@H](NC(=O)OCc1ccccc1)C(=O)NCc1ccccc1	8.9
CCn1c(N2CCN(C(=O)/C=C/c3ccccc3)CC2)nc2ccccc21	14.9
O=C(/C=C/c1cccc([N+](=O)[O-])c1)NCCSCc1cccc(Cl)c1	7.6
Cc1cc(C)n(CC2CC(=O)N(c3ccccc3)C2=O)n1 (stereo not drawn)	12.9
COc1ccc2c(c1)c(C(=O)N/N=C/c1ccc(Br)cc1)c(C)n2C	19.9
NNC(=S)Nc1cccc(-c2n[nH]c(=S)o2)c1	27.2
C=Cn1cc[n+](CC(=O)c2ccc(C)cc2)c1	6.1
CCNC(=S)NNC(=S)NCc1ccccc1	10.2
N#Cc1ccccc1OCC(=O)NC(=O)NCc1ccco1	20.6
CCCc1ccc(OCc2ccc(C(=O)Nc3cccc(C)n3)o2)c(OC)c1	11.1
Nc1ccc(S(N)(=O)=O)cc1N	12.9
O=C1CC[C@@H](CN(Cc2ccccc2)Cc2cn[nH]c2-c2cc3ccccc3o2)N1	12.2
COCCCNC(=S)NNC(=O)c1ccc(S(=O)(=O)N2CCC(C)CC2)cc1	2.0
COc1ccc([C@H]2[C@H](C(C)=O)N3N=Cc4ccccc4C3C23C(=O)OC(C)(C)OC3=O)cc1 (stereo partly drawn)	12.6
Cc1cccc(NC(=O)C2c3ccccc3Oc3ccccc32)n1	6.3
O=C(O)CC1(CC(=O)Nc2ccc(F)cc2F)CCCCC1	20.2
Cn1nc(C(F)(F)F)c(-c2cccc(C(F)(F)F)c2)c1NC(=O)c1nccnc1C(=O)O	6.9
CCCNC(=O)c1nc(C)n(-c2cc(Cl)ccc2Cl)n1	-3.5
CC(=O)NS(=O)(=O)c1ccc(N=c2ssc3c2-c2cc(C)ccc2NC3(C)C)cc1	11.1
CCCNC(=O)c1onc(CSc2ccc(F)cc2)c1C(=O)NCCC	6.8
CCOCCCNC(=O)c1c[nH]c2c(CC)cccc2c1=O	5.1
Cc1ccc(CNC(=O)C2CCCN(c3nc4ccccc4o3)C2)cc1 (stereo not drawn)	11.3
COc1ccccc1NC(=O)C(=O)N/N=C(\C)CC(=O)Nc1ccccn1	17.4
O=C1CCC(=O)N(O)CCCCCNC(=O)CCC(=O)N(O)CCCCCNC(=O)CCC(=O)N(O)CCCCCN1	17.0
Cc1c(/C(Cc2ccccc2)=N/O)c2ccccc2n1C	14.7
COc1cc(C=C(c2nc3ccccc3s2)c2nc3ccccc3s2)ccc1O	24.3
CCOC(=O)c1sc(=NC(=O)CCSc2ccccc2)n(C)c1C	-6.8
COCc1cc(Sc2ccc(Cl)cc2)nc(C)n1	12.9
COC(=O)CNC(=O)COC(=O)/C=C/c1cccs1	10.9
O=C(OCc1nc2ccc(Cl)cc2n1CCO)c1ccc(O)cc1	8.0
O=C(/C=C/Nc1ccc(S(=O)(=O)Nc2cnc3ccccc3n2)cc1)c1cccnc1	10.4
CC(C)(C)/C(O)=C/c1nc2ccccc2oc1=O	6.8
O=C(CNc1ccccc1OC(F)F)N1CCc2ccccc21	15.1
Cc1csc(/N=C/c2ccc([N+](=O)[O-])cc2)n1	2.1
COc1ccc(NC(=O)CN(C)CC(=O)Nc2ccc(Cl)cc2[N+](=O)[O-])cc1	16.5
CCn1c(SCC(=O)N/N=C/C=C/c2ccccc2[N+](=O)[O-])nnc1-c1ccccc1	8.1
Nn1c(Cc2ccc(F)cc2)n[nH]c1=S	13.4
CCS(=O)(=O)c1nc(S(=O)(=O)c2ccc(C)cc2)c(NCCCN(C)C)s1	14.4
Cc1onc(-c2ccccc2Cl)c1C(=O)NCc1ccc2c(c1)cc(C)n2C	14.1
COc1ccc(NC(=O)N2CCN(c3nc4ccccc4n3C(C)C)CC2)cc1	-2.6
CCOC(CNC(=O)Cn1nc(C)c2ccccc21)OCC	7.2
CC(C)CNC(=S)N1CCC(C(=O)c2ccc3c(c2)OCCO3)CC1	10.3
Cc1nn(C)cc1C(C(=O)NC1CCCCC1)N(C(=O)Cc1cccs1)c1ccc(Cl)cc1 (stereo not drawn)	11.5
CCN(CC)CCCNCC(=O)Nc1ccc2c(c1)CCC2	1.3
N#CCCn1cc(C(=O)Nc2ccccc2Br)c(-c2cccs2)n1	9.6
COc1ccc(N=c2oc3ccccc3cc2C(=O)Nc2ccccn2)cc1OC	-0.5

The list continues:
SMILES	Calb biofilm kill
Cc1ccc(S(=O)(=O)N2CCCCC2)cc1NC(=O)COC(=O)c1ccccc1F	-9.8
CCN(CC)S(=O)(=O)c1ccc(O)c(NC(=O)CN2CCc3ccccc3C2)c1	18.3
CC(=O)NCC(=O)OCC(=O)Nc1nc(-c2ccccc2)cs1	-0.1
CC(C)c1ccc(S(=O)(=O)Nc2ccc(SC(F)F)cc2)cc1	-4.1
O=C(COc1ccccc1-c1ccccc1)c1ccccc1	19.1
CCOC(=O)C1=C(C)N(C)C(=O)NC1c1cc2c(cc1[N+](=O)[O-])OCO2 (stereo not drawn)	1.0
CC(C)Nc1nc(-c2ccccn2)nc(-c2ccccc2)c1C#N	11.3
CCOC(=O)/C(C#N)=C1\C=CN(C)C(C)=N1	8.1
CCOC(=O)c1nc(C)n(-c2ccc([N+](=O)[O-])cc2)n1	7.8
CCCn1cnc2cc(NCc3cccs3)ccc21	14.3
Cc1nc(-c2ccc(C(F)(F)F)cc2)sc1C(=O)NN	17.3
COC(=O)c1ccccc1NC(=O)c1cnn2c(C)cc(C)nc12	3.0
COc1ccc(-c2nnc(SCC(=O)O)n2C)cc1OC	13.7
CSc1ccc(C2(O)Cc3cccc[n+]3C2c2ccccc2)cc1 (stereo not drawn)	30.1
COc1cc(/C=C/C(=O)c2ccc(O)cc2)ccc1OCC#N	16.3
O=C(Cc1nnc(NC(=O)Nc2ccc(F)cc2)s1)NCc1ccccc1	20.1
CC(C)=CCC/C(C)=C/C=N/NC(=O)c1cccc([N+](=O)[O-])c1	16.0
Cc1nc(-c2ccncc2)sc1C(=O)Nc1ccc(Cl)cc1	15.7
N#Cc1ccsc1NC(=O)CN1CCN(Cc2ccccc2)CC1	13.7
Cc1cccc(C(=O)N2CC3(C)CC2CC(C)(C)C3)c1 (stereo not drawn)	8.5
